CtBP-E1A inh: qHTS Assay for Inhibitors of the CtBP/E1A Interaction; AlphaScreen GST-E1A/His-CtBP binding, 1536-well; hits give low values; control for the full effect not named in the record; actives 0.49% (n = 340,000); AID 651724, 2012; CtBP / adenovirus E1A interaction (AlphaScreen); activity change, % (test concentration not listed); in the data active means activity change below about -65%; inconclusive means about -30% to -65%; inactive means above about -30%; further: on the % scale 0 is the no-effect control and ±100 the full control effect; compound concentration not given in the record
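Protein mix (5X: 125 nM each GST-E1A, His-CtBP) was incubated with pinned compound 2 h at 37 deg C in dark, in 50 mM Tris pH 8.0 buffer with 300 mM NaCl. Glutathione donor and nickel acceptor beads followed; AlphaScreen signal read after 1 h.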
TRPML1 agonist: qHTS for Agonists of the Human Mucolipin Transient Receptor Potential 1 (TRPML1); Mucolipin-1 (Homo sapiens), Q9GZU1; TRPML1-expressing cells, Ca2+ dye fluorescence, FDSS; host cell line not named in the record; reference of the full effect not given here; activation, % (test concentration not listed); actives 0.12% (n = 410,000); in the data active = activation above about 50%; inconclusive = about 30% to 50%; inactive = below about 30%; further: 0% is about no effect; the text of the record puts the active cut at 80%
Target sequence (Q9GZU1 whole entry, looked up): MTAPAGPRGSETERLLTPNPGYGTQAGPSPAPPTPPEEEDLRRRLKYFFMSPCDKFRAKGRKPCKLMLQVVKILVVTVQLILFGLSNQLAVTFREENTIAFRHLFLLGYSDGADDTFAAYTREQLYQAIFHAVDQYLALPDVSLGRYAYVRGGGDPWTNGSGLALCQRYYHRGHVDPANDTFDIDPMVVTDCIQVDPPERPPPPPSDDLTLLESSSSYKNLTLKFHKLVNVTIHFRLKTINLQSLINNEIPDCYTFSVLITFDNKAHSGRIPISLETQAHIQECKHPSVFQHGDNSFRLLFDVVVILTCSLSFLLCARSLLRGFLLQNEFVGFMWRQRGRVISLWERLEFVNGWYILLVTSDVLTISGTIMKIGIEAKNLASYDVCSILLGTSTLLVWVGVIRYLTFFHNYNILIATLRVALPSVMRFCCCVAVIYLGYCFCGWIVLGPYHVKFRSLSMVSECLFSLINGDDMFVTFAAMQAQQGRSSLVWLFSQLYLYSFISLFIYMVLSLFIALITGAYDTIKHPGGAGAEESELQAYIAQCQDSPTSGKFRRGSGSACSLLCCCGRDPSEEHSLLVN
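Agonist activity was taken from a 110 s kinetic Ca2+ dye read on the FDSS after pinning compounds onto TRPML1-DL cells. The cells were seeded at 1,500/well with Tet inducer, incubated about 16 h, then dye-loaded at room temperature.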
D2 agonist: Beta-Arrestin HTS for Positive Allosteric Modulators of the Human D2 Dopamine Receptor: Agonists; D(2) dopamine receptor (Homo sapiens), P14416; DiscoveRx PathHunter D2 beta-arrestin, luminescence, 90 min; 100% = 57 uM dopamine signal; activation, % (no concentration beside the values); actives 0.084% (n = 360,000); in the data active = activation above about 40%; inconclusive = about 15% to 40%; inactive = below about 15%; further: compound concentration not given in the record; the text of the record calls up to 30% inactive
Target sequence (P14416 whole entry, looked up): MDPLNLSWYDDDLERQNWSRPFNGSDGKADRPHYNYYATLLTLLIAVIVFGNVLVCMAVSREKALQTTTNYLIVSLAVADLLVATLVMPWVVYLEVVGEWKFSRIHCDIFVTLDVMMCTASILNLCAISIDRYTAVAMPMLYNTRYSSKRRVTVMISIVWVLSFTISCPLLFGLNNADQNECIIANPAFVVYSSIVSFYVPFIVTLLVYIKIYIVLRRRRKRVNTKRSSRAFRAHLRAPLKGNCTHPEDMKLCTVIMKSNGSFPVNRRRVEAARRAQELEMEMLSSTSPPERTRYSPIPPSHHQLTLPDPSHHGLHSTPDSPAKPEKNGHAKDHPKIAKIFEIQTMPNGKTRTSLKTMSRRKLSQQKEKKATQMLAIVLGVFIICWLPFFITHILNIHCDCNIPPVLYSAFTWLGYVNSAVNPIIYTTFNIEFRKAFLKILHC
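Agonist mode: compounds alone added to overnight-plated D2 PathHunter cells for 90 min at 37 C, with 57 uM final dopamine (EC100) defining full response. Beta-arrestin recruitment detected by chemiluminescent reagent, read after 1 h at ambient temperature.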
Six1-Eya2 inh: qHTS Assay for Inhibitors of the Six1/Eya2 Interaction; Homeobox protein SIX1 (Homo sapiens) + Protein phosphatase EYA2 (Homo sapiens), …; AlphaScreen GST-Six1/His-Eya2 binding, biochemical; hits give low values; control for the full effect not named in the record; activity change, % (no concentration beside the values); actives 0.56% (n = 360,000); AID 651725, 2012; in the data active = activity change below about -65%; inconclusive = about -30% to -65%; inactive = above about -30%; further: on the % scale 0 is the no-effect control and ±100 the full control effect; compound concentration not given in the record
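Compounds are tested against tagged Six1 and Eya2 proteins bridged by glutathione donor and nickel acceptor beads; after a one-hour incubation at 37 °C without light, AlphaScreen emission is recorded.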
PINK1 modulator: A Quantitative High throughput Screen to Identify Chemical Modulators of PINK1 Expression; PINK1 immunofluorescence, high-content cytometry, 24 h; Potency, µM (top dose mostly 76.6 µM), without a hit: at the top dose activation (PINK1 increase), usual class: activators; actives 0.2% (n = 410,000); active = well fitted activation curve with a large enough effect; inconclusive = small, poorly fitted or top-dose-only effect; inactive = flat fitted curve, though single readings scatter; cell line not stated here;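 further: potency means the concentration at half of the fitted maximal effect; % of control where 0% means no effect; nearly all actives have a fitted effect of over 65% in size; a mitochondrial uncoupler was the plate control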
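PINK1 protein, normally rapidly degraded, was detected by immunofluorescence after 24 hour compound treatment of a stable cell line. Titration data (5 concentrations) came from laser-scanning cytometry, with CCCP-treated wells as controls.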
TRPML1 blocker: qHTS for Inhibitors of the Human Mucolipin Transient Receptor Potential 1 (TRPML1); Mucolipin-1 (Homo sapiens), Q9GZU1; TRPML1-inducible cells, Ca2+ dye fluorescence, FDSS; hits give low values; inhibition of EC80 agonist-evoked calcium signal; activity change, negative = inhibition, % (test concentration not listed); actives 0.02% (n = 390,000); in the data active means activity change below about -50%; inconclusive means about -30% to -50%; inactive means above about -30%;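 further: stimulus is agonist 54-4 at its EC80 concentration; on the % scale 0 is the no-effect control and ±100 the full control effect; compound concentration not given in the record; the text of the record puts the active cut at -80%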
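Tet-induced TRPML1-DL cells loaded with Ca8 no-wash calcium dye were read kinetically on FDSS. Compound addition was followed by EC80 agonist 54-4 (4 uM final); inhibition was read over 110 s.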
Numbers without * were called inactive; ? = inconclusive; / = no result given; [ ] = another dose, or the depositor's remark. Rows were taken by chance. Share with any hit: about 1%.

SMILES | CtBP-E1A inh | TRPML1 agonist | D2 agonist | Six1-Eya2 inh | PINK1 modulator | TRPML1 blocker
CCc1c(C)sc2c1CCN(Cc1ccccc1F)C2c1ccccc1 (configuration not stated) | / | -0.1 | / | / | ? | -11.2
Cc1ccc(S(=O)(=O)n2cnc3ccccc32)cc1 | -0.5 | 0.0 | -0.4 | 8.9 | 0.0% | -5.8
Cc1ccc(C(=O)NCCc2nnc3ccc(SCC(=O)N4CCCCC4)nn23)cc1 | 4.5 | -0.3 | -5.4 | -0.2 | -1.1% | -14.8
Cc1ccc(NC(=O)Cn2c(=O)oc3cc(S(=O)(=O)N4CCCCC4)ccc32)c(C)c1 | / | -1.0 | / | / | 0.7% | -10.4
COc1ccc(O)c(/C=N/NC(=O)CCC(=O)Nc2cccc(C)c2)c1 | ? | 2.0 | -2.7 | ? | 1.3% | -18.2
Cc1nc(NCc2ccccn2)c2ccccc2n1 | -10.8 | 3.7 | 0.5 | 1.5 | 3.1%[38.3 µM] | 34.5
Cc1cc(C)nc(SCc2nnc(SCC(N)=O)n2Cc2ccco2)n1 | 5.8 | 1.6 | -1.1 | 8.6 | -0.7% | -7.6
CCC1C(=O)CC(c2ccco2)NC1c1ccco1 (configuration not stated) | 0.3 | -1.5 | -0.9 | 4.7 | 0.4% | 4.7
COc1ccc(/C=C2\SC(=S)N(CCC(=O)N3CCCCC3CCO)C2=O)cc1 (configuration not stated) | -24.1 | -0.4 | -0.8 | -13.3 | 1.8% | 2.8
COc1ccc(CC(=O)Oc2ccc(C(C)(C)C)cc2)cc1S(=O)(=O)N1CCOCC1 | -0.3 | 0.5 | -0.9 | -3.7 | 2.7% | 8.8
COc1ccc2nc(N3C(=O)CC(Cc4cc(C)cc(C)c4)C3=O)sc2c1 (configuration not stated) | 4.1 | -1.3 | 0.5 | -6.1 | 1.6% | -5.3
NNc1nc2sc3c(c2c(=O)n1Cc1ccccc1)CCC3 | -12.1 | 0.8 | 1.4 | -5.6 | 2.8% | 12.8
COc1ccc(-c2csc(C(O)c3cccnc3)n2)cn1 (configuration not stated) | -9.5 | -0.9 | 1.8 | -14.3 | 0.7% | /
CC(=O)N1c2ccc(S(=O)(=O)NCC3CCC(C(=O)N4CCCC(C)C4)CC3)cc2CC1C (configuration not stated) | 1.6 | 0.7 | 2.6 | -3.3 | 0.4% | -27.9
C/C(=N\NC(=O)CC1N=C(Cc2ccccc2)NNC1=O)c1ccncc1 (configuration not stated) | / | -0.9 | -3.2 | 3.8 | 7.3% | 2.2
O=c1[nH]c(/C=C\c2cccnc2)c([N+](=O)[O-])c(=O)[nH]1 | -12.6 | 0.7 | -3.2 | -9.0 | -0.4% | -12.5
CN(CC(=O)NC1CCCc2ccccc21)S(=O)(=O)c1ccc2c(c1)c(=O)n(C)c(=O)n2C (configuration not stated) | -17.7 | -0.2 | -1.8 | -11.3 | 1.3% | 11.9
CC(C)(C)c1ccc(OCC(=O)N2CCN(c3ccccn3)CC2)cc1 | -14.1 | 3.1 | 2.2 | -5.0 | 1.5% | 16.7
COc1ccc(NC(=O)Cn2c(=O)n(Cc3ccco3)c(=O)c3cc(OC)c(OC)cc32)cc1 | / | 0.3 | / | / | 0.3% | -15.2
Cc1ccc(C(=O)C[n+]2cc(Br)cc(Br)c2)cc1 | 9.0 | -0.3 | -2.1 | -14.1 | 1.8% | -8.8
CC1Oc2ccccc2N(Cc2ccc(F)cc2)C1=O (configuration not stated) | 4.6 | 2.5 | 0.9 | 9.5 | 1.0% | -23.5
Fc1cccc(Cc2c(-c3cccc(Br)c3)nc3ccc(Cl)cn23)c1 | -1.5 | 1.9 | -3.0 | 6.9 | 1.8% | 24.4
NC(=O)c1ccc(N2CCN(S(=O)(=O)c3cccs3)CC2)c([N+](=O)[O-])c1 | / | -0.4 | -1.6 | -5.8 | -0.7% | -8.4
COc1cc(OC)c(CN2CCCN(C)CC2)cc1Br | 0.4 | 0.4 | -2.7 | -5.2 | 0.2% | 1.7
O=C(COC(=O)c1ccc2ccccc2n1)Nc1cccc(S(=O)(=O)NC2=NCCCCC2)c1 | / | 0.8 | 1.5 | -2.5 | 1.4% | 20.7
Cc1ccc(S(=O)(=O)N2CCN(C(=O)COC(=O)COc3ccccc3C(C)C)CC2)c(C)c1 | 8.7 | 0.5 | 1.8 | 13.4 | -0.5% | 82.0
Cn1c2ccccc2c(=O)c2c(=O)n(-c3ccc(F)cc3)c(C3CCCCC3)nc21 | 0.0 | / | 2.2 | 22.8 | 0.4% | /
O=C(CCCCCn1c(=S)[nH]c2ccccc2c1=O)N1CCOCC1 | -2.4 | 0.0 | -0.1 | 5.1 | / | -3.3
Cc1ccc(N2C(=O)Nc3cc(Cl)c(Cl)cc3N2O)cc1Cl | 16.4 | 0.6 | 2.3 | 6.6 | -0.7% | -3.8
O=C(COc1ccccc1)Nc1c(C(=O)N2CCC(N3CCCCC3)CC2)oc2ccccc12 | / | 0.3 | 1.7 | -1.1 | 0.8% | -7.1

Single records (already shown). Order of screens: CtBP-E1A inh | TRPML1 agonist | D2 agonist | Six1-Eya2 inh | PINK1 modulator | TRPML1 blocker
Entry for `COc1ccc(NC(=O)Cn2c(=O)n(Cc3ccco3)c(=O)c3cc(OC)c(OC)cc32)cc1` → / | 0.3 | / | / | 0.3% | -15.2
Entry for `O=C(COc1ccccc1)Nc1c(C(=O)N2CCC(N3CCCCC3)CC2)oc2ccccc12` → / | 0.3 | 1.7 | -1.1 | 0.8% | -7.1
Entry for `Cn1c2ccccc2c(=O)c2c(=O)n(-c3ccc(F)cc3)c(C3CCCCC3)nc21` → 0.0 | / | 2.2 | 22.8 | 0.4% | /
Entry for `Fc1cccc(Cc2c(-c3cccc(Br)c3)nc3ccc(Cl)cn23)c1` → -1.5 | 1.9 | -3.0 | 6.9 | 1.8% | 24.4
Entry for `CC(C)(C)c1ccc(OCC(=O)N2CCN(c3ccccn3)CC2)cc1` → -14.1 | 3.1 | 2.2 | -5.0 | 1.5% | 16.7

Next structures:
SMILES | CtBP-E1A inh | TRPML1 agonist | D2 agonist | Six1-Eya2 inh | PINK1 modulator | TRPML1 blocker
CNC(=O)c1cc(C(=O)c2ccc(F)cc2C(F)(F)F)c[nH]1 | 4.4 | 0.0 | 1.2 | 5.7 | 0.5% | -3.4
CCOc1ccc(-n2c(=O)c3c(C)c(C)sc3n(CC(=O)NCCc3ccccc3)c2=O)cc1 | / | 3.0 | / | / | 1.5% | -4.1
O=C(c1ccc(Cl)cc1)C1CCN(C(=O)c2ccc(F)cc2)CC1 | 10.7 | 0.6 | -3.3 | -0.1 | 1.4% | -6.5
C#CCOCCOCCOCCNc1nc(N2CCN(C(=O)C([C@@H](C)CC)n3cc(C(N)CC(C)C)nn3)CC2)nc(N2CCN(C(=O)[C@H](CCC(=O)O)n3cc(C(N)CC(C)C)nn3)CC2)n1 (some centres not stated) | -5.2 | -1.0 | -2.7 | -0.5 | -1.1% | 18.1
Cc1ccc(S(=O)(=O)NNC2CC(=O)N(c3ccc(Br)cc3)C2=O)cc1 (configuration not stated) | / | -0.3 | -1.1 | 2.8 | -0.6% | 20.9
CN(C)/C=N/S(=O)(=O)c1ccc(Cl)c(Cl)c1 | 4.7 | 3.1 | 1.4 | 2.5 | 2.5% | -3.2
COc1ccc(Nc2ccnc3ccccc23)cc1 | -9.1 | 0.4 | 4.8 | 1.7 | -2.6% | 11.5
O=c1[nH]c(CSc2ncc(C(F)(F)F)cc2Cl)nc2cc(C(F)(F)F)ccc12 | 2.8 | 0.7 | 0.2 | 5.4 | 11.7% | 5.9
CC(=O)c1sc(NC(=O)CCCOc2ccccc2C)nc1C | -13.1 | -0.9 | -4.2 | 23.4 | 2.2% | -1.1
O=C1C=C(c2ccccc2Oc2ccccc2)C[C@@H](c2ccc3c(c2)OCO3)C1 | -1.5 | 0.9 | -1.7 | -11.3 | -0.7% | 16.4
CCN(CCCNC(=O)CSc1cc(=O)n(CC)c2ccccc12)c1cccc(C)c1 | / | 4.2 | / | / | 1.0% | 5.7
COc1ccc(N2CCN(C(=O)CCCOc3cc(=O)n(C)c4ccccc34)CC2)cc1 | -7.0 | -1.0 | -6.9 | -12.1 | -12.1%[38.3 µM] | 3.3
Nc1nc(CSc2nnnn2-c2ccccc2)nc(N2CCCc3ccccc32)n1 | -8.5 | 2.3 | -2.9 | -12.8 | 0.6% | 17.0
COc1ccc(C)cc1NC(=O)CNC(c1ccccc1)c1ccccc1 | 4.5 | 2.6 | -3.1 | 2.8 | 7.8% | 24.5
CC(=O)c1cc(CN2CCN(Cc3ccc(C)cc3)C(CCO)C2)cs1 (configuration not stated) | / | -0.1 | -4.2 | 1.0 | 1.2% | -6.4
C[N+]1(C2CCC3CCC2C3O)CCCC1 (configuration not stated) | 4.0 | -0.7 | -5.5 | 1.8 | 3.0% | 22.0
Cc1sc2ncn(CC(=O)N(C)c3cccc(C(F)(F)F)c3)c(=O)c2c1S(=O)(=O)N1CCN(c2ncccn2)CC1 | / | -0.3 | / | / | -0.7% | -15.7
CCOc1ccc2[nH]c(C(=O)N/N=C/c3cccc(OC)c3OC)cc2c1 | / | 2.2 | 6.7 | 3.6 | 7.2% | 2.8
COc1cccc(C(NC(C)=O)c2nc(-c3ccccc3OC)cs2)c1 (configuration not stated) | -22.9 | -0.7 | -6.0 | 2.7 | -0.2% | /
O=C(Nc1ccccc1C(=O)OCc1cc(=O)n2ccsc2n1)c1ccc(Cl)cc1 | / | -0.8 | / | / | 1.2% | 6.7
CC(=O)c1cc(-c2ccccc2)n(CC(=O)N2CCC(C)CC2)c1C | -18.4 | -0.1 | -1.3 | -23.7 | 3.1% | -8.9
Cc1c(Cl)cccc1NC(=S)NCCCN(C)C | / | 0.1 | 0.0 | -1.4 | -1.1% | 5.3
Oc1ccc(Nc2nc(-c3cccnc3)cs2)cc1 | 7.9 | 0.2 | 4.5 | ? | 1.6% | 3.4
Cc1nc2ccc(S(=O)(=O)NCC(=O)N3CCN(c4ccccn4)CC3)cc2s1 | 6.5 | 2.3 | 1.7 | -1.3 | 0.5% | -3.5
Cn1c(NCc2ccccc2)nc2c1c(=O)n(Cc1ccc(Br)cc1)c(=O)n2C | -3.1 | -0.2 | 1.5 | -18.9 | -1.3% | 40.4
CC1(C)CC(NC(=O)C2CCCCC2)CC(C)(C)N1 | 2.0 | -0.4 | -0.3 | -6.1 | 3.0% | -16.2
CCCCn1ccnc1C(=O)c1cccc(S(=O)(=O)N2CC(C)CC(C)C2)c1 (configuration not stated) | 7.1 | 1.2 | -3.0 | 1.5 | 3.7%[38.3 µM] | 32.7
CCN(CC)S(=O)(=O)c1ccc(N2CCOCC2)c(NC(=O)c2ccc(OC)c([N+](=O)[O-])c2)c1 | / | 3.9 | 2.5 | 6.9 | 0.8% | 35.8
